Choline anaer gr: growth inhibitors of anaerobic choline-fed gram-negatives, minimal medium, absorbance; 55,000 tested, 0.2% active; calls only; Gram-negative bacterium anaerobic choline minimal medium; stronger effect = lower value; many inactives read as strong as hits in the columns shown;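 active = growth z-score on choline under -2 at 7 or 20 h with little or no fall on glycerol, limits in tiers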;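 also: stock transfer was 300 nL into about 50 µL; the organism is E. coli; final concentration not given here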
Choline anaer gr early: recorded beside Choline anaer gr, whose call it bears; z-score; measured here: choline growth z-score, timepoint 1;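 score of optical density at 7 h as mean of two plates; lower means less growth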
* = called active by the depositor; i = inactive; & = joins results of further samples.

Results follow in this order: Choline anaer gr	Choline anaer gr early
- CC(Cn1c(=O)c2sccc2n2c(SCc3ccccc3)nnc12)c1ccccc1 (configuration not stated)
→ i	-1.52
- Cn1c(=O)[nH]c(=O)c2c1nc(N1CCNCC1)n2Cc1ccccc1Cl
→ i	0.34
- Cc1ccc(Cl)cc1NC(=O)CSC1=Nc2ccccc2N=C(c2ccccn2)C1
→ i	-0.4
- Cc1nc(-c2ccc(F)cc2)sc1CCNC(=O)c1cccc(Br)c1
→ i	1.52
- Cc1ccc(C)n1-c1nnc(N2CCC(C(=O)N3CCCC3)CC2)s1
→ i	-0.41
- COc1ccc(NC(=O)NCCCN2CCC(Cc3ccccc3)CC2)cc1
→ i	-0.91
- O=c1[nH]c(SCCO)nc2c1cnn2CCO
→ i	-1.3
- O=C(C1CCCN(c2nc3ccccc3n3cccc23)C1)N1CCN(c2ccc(F)cc2)CC1 (configuration not stated)
→ i	0.22
- CCOC(=O)c1c(S(=O)(=O)N2CCc3ccccc3C2)c(C)n(C)c1C
→ i	2.67
- O=C(NCCS(=O)(=O)N1CCc2ccccc2C1)C1CC(=O)N(c2ccccc2)C1 (configuration not stated)
→ i	0.31

A second format for 4 compounds above:
O=c1[nH]c(SCCO)nc2c1cnn2CCO
- Choline anaer gr: i
- Choline anaer gr early: -1.3

Cc1ccc(C)n1-c1nnc(N2CCC(C(=O)N3CCCC3)CC2)s1
- Choline anaer gr: i
- Choline anaer gr early: -0.41

O=C(NCCS(=O)(=O)N1CCc2ccccc2C1)C1CC(=O)N(c2ccccc2)C1 (configuration not stated)
- Choline anaer gr: i
- Choline anaer gr early: 0.31

Cc1ccc(Cl)cc1NC(=O)CSC1=Nc2ccccc2N=C(c2ccccn2)C1
- Choline anaer gr: i
- Choline anaer gr early: -0.4

Following part
Results follow in this order: Choline anaer gr	Choline anaer gr early
- CCCCCNc1cc(C)nc2c(-c3ccc(F)cc3)c(C(F)(F)F)nn12
→ i	4
- CNC1(C)C2CCC(C2)C1(C)C (configuration not stated)
→ i	-0.16&0.11
- CCC(C)NC(=O)Cn1cnc2nc(N3CCC(C(=O)NC(C)C)CC3)sc2c1=O (configuration not stated)
→ i	0.34
- Fc1ccc(-c2noc(-c3ccc(N4CCN(Cc5ccc6c(c5)OCO6)CC4)nn3)n2)cc1
→ i	0.12
- COc1ccc(NC(=O)c2nc(Nc3ccccc3)c3ccccc3n2)c(OC)c1
→ i	-0.23
- CCc1noc2nc(C)nc(NC3CC3)c12
→ i	-1.06
- CCC(C(=O)NCCCN1CCCC1=O)N1C(=O)CCn2nc(C)cc21 (configuration not stated)
→ i	-0.53
- O=C(Nc1ccccc1)C1COc2ccccc2C1 (configuration not stated)
→ i	1.27
- O=C(CCCn1c(=O)c2cccn2c2cccnc21)N1CCC(Cc2ccccc2)CC1
→ i	-2.32
- CCN(CC)c1ccc(C(=O)N2CCN(c3ccc(=O)n(-c4ccc(OC)cc4)n3)CC2)cc1
→ i	0.42

Individual results from above:
O=C(C1CCCN(c2nc3ccccc3n3cccc23)C1)N1CCN(c2ccc(F)cc2)CC1 (configuration not stated) in Choline anaer gr early is entered as 0.22
CNC1(C)C2CCC(C2)C1(C)C (configuration not stated) in Choline anaer gr early is entered as -0.16&0.11
COc1ccc(NC(=O)NCCCN2CCC(Cc3ccccc3)CC2)cc1 in Choline anaer gr early is entered as -0.91

The listing continues:
Results follow in this order: Choline anaer gr	Choline anaer gr early
- Cc1noc(Cn2cnc3c4ccccc4n(CC(=O)NC4CCCC4)c3c2=O)n1
→ i	0.7
- CS(=O)(=O)Nc1ccc(C2=NN(C(=O)CCCC(=O)O)C(c3ccc(F)cc3)C2)cc1 (configuration not stated)
→ i	-1.74
- C[C@@H](c1ncncc1F)[C@](O)(Cn1cncn1)c1ccc(F)cc1F
→ i	0.42&-0.15
- COc1ccccc1N1CCN(S(=O)(=O)c2ccc3[nH]c(=O)oc3c2)CC1
→ i	-1.08
- CN(CCc1noc(-c2ccc(C(=O)NCc3ccccc3F)cc2)n1)C(=O)c1ccc(Cl)cc1
→ i	0.36
- Cc1ccccc1-c1noc(CCc2nnc3ccc(N4CCN(c5ccc(F)cc5)CC4)nn23)n1
→ i	1.99
- CCS(=O)(=O)c1ccc(-c2ccc(NC(=O)C3CCCCC3)cc2)nn1
→ i	0.02
- Cc1cc(C)c(S(=O)(=O)N2CCC(N3CCN(Cc4ccc(F)cc4)C(=O)C3=O)CC2)c(C)c1
→ i	1.26
- COc1ccc(NC(=O)c2nnc(C3CCN(S(=O)(=O)c4ccc(F)cc4)CC3)s2)cc1
→ i	0.38
- CNCc1ccc(-c2cc(Cl)cc(Cl)c2)o1
→ i	-1.8
- COc1cccc(NC(=O)c2c(-c3ccccc3Cl)noc2C)c1
→ i	0.33
- CCn1cc(C(=O)N2CCC(C)CC2)c2cc(OC)c(OC)cc2c1=O
→ i	0.86
- CCOc1ccc(-c2cc(NC(=O)Cn3ncc4c(=O)oc5ccccc5c43)on2)cc1
→ i	-0.23
- COc1ccccc1N1CCN(S(=O)(=O)c2cc(-c3nc(C)cs3)cs2)CC1
→ i	0.77
- Cc1noc2c1C(c1ccc(Br)cc1)C1=C(CCCC1=O)N2 (configuration not stated)
→ i	0.36
- CS(=O)(=O)N1CCCc2cc(C(N)=O)ccc21
→ i	0.71
- COCCNC(=O)N1CCN(Cc2nc3ccc(Cl)cc3o2)CC1
→ i	-1.3
- O=C(Nc1cccc(-c2nc(-c3ccccc3)no2)c1)C1CC1
→ i	0.53
- Cc1ccc(O)c([C@H](CCN(C(C)C)C(C)C)c2ccccc2)c1
→ i	0.64
- CN(CCCNC(=O)c1cc2occc2c(Nc2ccc(F)cc2)n1)C1CCCCC1
→ i	-0.73
- COc1ccccc1N1CCN(C(=O)c2[nH]nc3c2CCc2ccccc2-3)CC1
→ i	0.13
- CC(C)NC(=O)CN1C(c2ccccc2)=CC(c2ccccc2)n2nnnc21 (configuration not stated)
→ i	-0.25
- Cc1cc2c(cc3n2CC(C)(C(=O)NC2CCCCC2)N(Cc2ccc(Cl)cc2)C3=O)o1 (configuration not stated)
→ i	0.59
- Cc1nn(-c2ccccc2)c2c1CN(C(=O)Nc1ccc3c(c1)OCO3)C(c1ccc(N(C)C)cc1)c1cccn1-2 (configuration not stated)
→ i	-1.86
- COc1ccc2cc3c(nc2c1)N(S(=O)(=O)c1ccc(C)cc1)CC3
→ i	-0.89
- CC(C)(CC(=O)OCC(=O)c1ccccc1)CC1=NS(=O)(=O)c2ccccc2N1
→ i	-0.33
- O=C(O)CC1C(=O)NCCN1Cc1ccoc1 (configuration not stated)
→ i	-2.03
- CCOC(=O)C1CCN(C(=O)Cn2c(=O)n(C)c(=O)c3cnn(-c4ccccc4)c32)CC1
→ i	0.08
- Cc1ccc2snc(C(=O)N3CCN(C(=O)c4[nH]nc5c4CCc4ccccc4-5)CC3)c2c1
→ i	-0.88
- Cc1nn(C(C)C(=O)NCCc2ccc(S(N)(=O)=O)cc2)c(=O)c2c(C)n(-c3ccccc3)nc12 (configuration not stated)
→ i	0.39
- CC(C)n1cnc2nc(CSc3ccccc3NC(=O)c3ccc(Br)cc3)cc(=O)n21
→ i	1.81
- CCN1CCN(c2cc(C)nc3c(-c4ccc(C)cc4)c(C(F)(F)F)nn23)CC1
→ i	0.43
- O=C(c1cc(-c2cccnc2)n(-c2ccc(F)cc2)n1)N1CCCCC1
→ i	-1.62
- O=C1CN(Cc2c(F)cccc2Cl)S(=O)(=O)c2ccccc2N1Cc1ccc(Cl)cc1
→ i	2.55
- COc1cc(NC(=O)N2CCCCCC2c2ccc(C)s2)cc(OC)c1OC (configuration not stated)
→ i	-0.44
- Cc1noc(C)c1C1CCCN1Cc1cc(Br)ccc1O (configuration not stated)
→ i	-0.16
- CC(C)Cc1cc(-c2nnc3sc(C4COc5ccccc5O4)nn23)n[nH]1 (configuration not stated)
→ i	0.95
- O=S(=O)(c1ccc2c(c1)OCCO2)N1CCCC1c1ccc(F)cc1 (configuration not stated)
→ i	0.61
- CCn1nc(C)c(CCN(C)C(=O)NC2CCCC2)c1C
→ i	-1.36
- CCc1ccc(C2CC(=O)Nc3c2cnn3-c2nc3ccccc3s2)cc1 (configuration not stated)
→ i	2.27
- CC(C)N1Cc2cc(C(=O)NCCN3CCCCC3)sc2C1
→ i	0.3
- Cc1nn2c3c(cnc2c1-c1ccc(F)cc1)C(=O)CC(c1ccc(C(C)C)cc1)C3 (configuration not stated)
→ i	0.2
- COc1ccc(-c2c(C(=O)NCc3cccnc3)nn3c(C)cc(C)nc23)cc1S(=O)(=O)N1CCCC1
→ i	-0.1
- O=S(=O)(c1ccccc1-c1nc(-c2ccccc2)no1)N1CCN(C2CCCCC2)CC1
→ i	-1.04
- Cc1ccc(-c2csc3ncn4nnnc4c23)cc1
→ i	-1.73
- O=C(c1ccc2c(c1)OCO2)N1CCN(c2ncnc3c2nnn3-c2cccc(F)c2)CC1
→ i	0.66
- Cc1nn(-c2ccc(N3CCCCC3)nn2)c(C)c1CCC(=O)Nc1cccnc1
→ i	0.88
- CCCC(=O)NCCc1csc(-c2ccc(C)cc2)n1
→ i	0.91
- COc1ccc(NC(=O)c2ccc(F)cc2)cc1CN1CCn2c(nc3ccccc32)C1
→ i	-0.46
- Cc1ccc2c(c1)c1c(c(=O)n(Cc3ccccc3)c(=O)n1CC(=O)Nc1cc(C)[nH]n1)n2C
→ i	0.23

Additional structures.
SMILES,Choline anaer gr,Choline anaer gr early
CCCS(=O)(=O)c1nc2ccc(NS(=O)(=O)c3ccc(F)c(Cl)c3)cc2s1,i,-2.49
O=C1c2ccccc2-c2n[nH]c3cccc1c23,i,0.11&0.84&-0.81
O=C(Nc1ccc(-c2nc3ccccc3o2)cc1)C1COc2ccccc2O1 (configuration not stated),i,0.72
COc1cc(OC)cc(C(=O)Nc2nc(CC(=O)Nc3cc(OC)ccc3OC)cs2)c1,i,0.22
CCOC(=O)c1cc(S(=O)(=O)N2CCCC2C(=O)N2CCN(C3CCCCC3)CC2)cn1C (configuration not stated),i,-0.37
COC(=O)c1ccccc1NC(=O)c1ccc(-c2nc(COc3ccccc3)c(C)o2)cc1,i,-0.83
O=C(CCCN1C(=O)C(c2ccccc2)Oc2cccnc21)NCc1cccnc1 (configuration not stated),i,0.97
CC(C)NC(=O)CCCCn1c(=O)c2ccccc2n(CC(=O)Nc2ccc(F)c(Cl)c2)c1=O,i,0.52
CCCn1nnc(NCc2ccc(-c3cc(Cl)ccc3Cl)o2)n1,i,-0.36
CC(=O)N1CCCSc2ccc(S(=O)(=O)N3CCOc4ccccc43)cc21,i,-1.51

Full records, quoted from the list:
CCCS(=O)(=O)c1nc2ccc(NS(=O)(=O)c3ccc(F)c(Cl)c3)cc2s1 is listed with Choline anaer gr: i; Choline anaer gr early: -2.49
CNC1(C)C2CCC(C2)C1(C)C (configuration not stated) is listed with Choline anaer gr: i; Choline anaer gr early: -0.16&0.11
O=C(c1ccc2c(c1)OCO2)N1CCN(c2ncnc3c2nnn3-c2cccc(F)c2)CC1 is listed with Choline anaer gr: i; Choline anaer gr early: 0.66

Later entries:
SMILES,Choline anaer gr,Choline anaer gr early
Cc1ccc2c(=O)c(-c3nc(-c4ccc(Cl)cc4)no3)cn(CC(=O)Nc3cc(F)ccc3F)c2n1,i,-0.29
CC1OC(OCC2OC(Oc3c(-c4ccc(OCCO)c(OCCO)c4)oc4cc(OCCO)cc(O)c4c3=O)C(O)C(O)C2O)C(O)C(O)C1O (configuration not stated),i,0.67
Cc1noc(C)c1CCC(=O)NC1CCN(c2ncnc3c2CCC3)C1 (configuration not stated),i,0.1
CCn1c(CCCNC(=O)C(C)(C)C)nc2ccccc21,i,0.24
O=C(CCCn1nc(-c2ccccc2)c2ccccc21)NC1CCCc2ccccc21 (configuration not stated),i,0.5
CN(C)S(=O)(=O)c1ccc2c(c1)nc(C(F)(F)F)n2CCC(=O)Nc1ccc(F)cc1,i,0.19
Brc1cccc(-c2nn3c(-c4cccnc4)nnc3s2)c1,i,-0.88
Clc1ccc(Cl)c(-c2ccc(CNCCCn3ccnc3)o2)c1,i,-0.91
Cc1cc(C2CCCN2Cc2cccc(F)c2)no1 (configuration not stated),i,-0.1
Cc1ccc(CSc2nc3cccnc3n2Cc2cccc(Cl)c2)cc1,i,1.11
CCOC(=O)c1cc2n(n1)CC(C)(C(=O)NCCC(C)C)N(c1ccc(F)cc1C)C2=O (configuration not stated),i,0.55
CCS(=O)(=O)N1CCN(c2ncnc3c2nnn3-c2ccc(OC)cc2)CC1,i,-0.47
COc1ccc(C2c3c(n(C)c4ccccc34)C(=O)N2CC(=O)NCc2ccc(F)cc2)cc1 (configuration not stated),i,1.13
Cc1nc2nc3c(c(NCc4ccco4)n2n1)CCC3,i,-1.82
O=C(NCc1ccc2c(c1)OCO2)c1nc(-c2ccc(S(=O)(=O)N3CCCCC3)cc2)no1,i,0.11
CCN(Cc1cc(=O)n2ccsc2n1)c1ccccc1,i,1.04
COc1ccccc1N1CCN(C(=O)CSc2nc(NCc3ccc(Cl)cc3)c3ccccc3n2)CC1,i,0.37
Cc1cccc(NC(=O)C2CCCN(c3ccc(-c4ccccc4)nn3)C2)c1 (configuration not stated),i,1.7
OC[C@H]1NC[C@H](O)[C@@H](O)[C@@H]1O,i,0.08
N[C@@H](Cc1cc(I)c(Oc2cc(I)c(O)c(I)c2)c(I)c1)C(=O)O,i,-0.66&-0.01
Cn1c(=O)c2c(nc(Sc3nnc(NC(=O)C(C)(C)C)s3)n2C)n(C)c1=O,i,-0.35
O=C(Nc1ccc(F)cc1Cl)C1CCN(c2ncnc3onc(-c4ccc(F)cc4)c23)CC1,i,-1.44
COc1ccc(-c2noc(CCCn3c(=O)[nH]c4cc5c(cc4c3=O)OCO5)n2)cc1,i,-0.69
O=C1CC(c2ccccc2)c2cc3c(cc2N1)OCCO3 (configuration not stated),i,-1.56
Cc1ccccc1S(=O)(=O)N1CCN(c2nc3cc(Br)ccc3n3cccc23)CC1,i,1.13
O=C(NC1CC1)C1CCN(c2ccc(-c3cccc(F)c3)nn2)CC1,i,0.86
O=c1c2cc3c(cc2nc(SCc2nc(-c4ccccc4Br)no2)n1C1CC1)OCO3,i,0.18
CCCCCC(=O)CC[C@H]1[C@H](O)CC(=O)[C@@H]1CCCCCCC(=O)O,i,0.37

An excerpt, so the mix of outcomes need not match the whole.
